Screening data: PubChem, National Center for Advancing Translational Sciences (NCATS)
Rango-impB inh: inhibitors of Rango-importin beta complex formation | Rango CFP/YFP FRET sensor + importin beta, 45 min | Potency, µM (titrated, usually from 92.2 µM), without a hit: top-dose inhibition of complex formation | 340,000 compounds, 0.031% hits | AID 540263 | Q14974; active = rising FRET ratio curve, often small or poorly fitted; inconclusive = mostly compound fluorescence or quenching in the first reads; inactive = flat curves in all reads;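 also: potency is read from the fitted curve at half-maximal effect; 0% = DMSO wells and 100% = buffer wells lacking importin beta; nearly all actives have a fitted effect of over 15% in size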
Target sequence (Q14974 whole entry, looked up): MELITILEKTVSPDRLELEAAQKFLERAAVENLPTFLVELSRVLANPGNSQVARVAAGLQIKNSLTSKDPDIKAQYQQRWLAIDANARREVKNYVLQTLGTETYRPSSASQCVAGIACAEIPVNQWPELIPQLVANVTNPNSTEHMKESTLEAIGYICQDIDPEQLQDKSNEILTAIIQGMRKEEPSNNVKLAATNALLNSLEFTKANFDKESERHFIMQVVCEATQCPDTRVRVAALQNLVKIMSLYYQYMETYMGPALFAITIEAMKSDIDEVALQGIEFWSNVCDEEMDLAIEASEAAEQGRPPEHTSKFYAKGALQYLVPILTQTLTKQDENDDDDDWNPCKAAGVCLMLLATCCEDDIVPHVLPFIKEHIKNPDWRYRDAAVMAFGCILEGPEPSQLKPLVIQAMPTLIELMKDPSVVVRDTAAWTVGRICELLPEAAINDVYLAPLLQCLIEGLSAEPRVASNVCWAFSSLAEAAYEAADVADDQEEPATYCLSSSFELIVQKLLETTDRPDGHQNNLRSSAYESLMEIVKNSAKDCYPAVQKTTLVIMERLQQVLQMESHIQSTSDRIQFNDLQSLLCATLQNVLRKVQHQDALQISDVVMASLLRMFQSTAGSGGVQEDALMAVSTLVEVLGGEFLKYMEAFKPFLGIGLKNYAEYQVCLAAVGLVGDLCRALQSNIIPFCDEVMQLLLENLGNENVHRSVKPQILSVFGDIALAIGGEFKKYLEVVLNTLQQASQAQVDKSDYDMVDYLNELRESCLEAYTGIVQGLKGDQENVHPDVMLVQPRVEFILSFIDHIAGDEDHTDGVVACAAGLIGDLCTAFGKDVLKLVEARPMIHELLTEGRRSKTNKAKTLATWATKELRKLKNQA
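FRET biosensor (snurportin 1 IBB flanked by EYFP and cerulean), 50 nM, with compound 5 min, then 0.125 microM importin beta in PBS, 1 mM DTT, 0.02% Tween-20, 0.1% BSA. CFP/YFP ratio read after 45 min at room temperature; pre-read flags interference.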
miR-21 FLuc: miR-21 reporter, rising signal; HeLa miR-21 FLuc reporter, luciferase, 48 h; Potency, µM (doses to about 38.3 µM), for the others: top-dose reporter change, positive = more light; 340,000 tested, under 10 active; active = well fitted rising curve with a large enough effect; inconclusive = small, poorly fitted or top-dose-only effect; inactive = no such curve, though single readings can be large or run the other way;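 also: % of control where 0% means no effect; miR-21 action dims this reporter so a rising signal means less miR-21 action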
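HeLa miR-21-FLuc reporter line, endogenous miR-21; 2000 cells/well in DMEM/10% FBS; compound titration up to ~40uM final, 48 h, 37 degree Celsius; luciferase detection reagent, 15 min lysis, CCD luminescence.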
GLA inh pH 4.5: alpha-galactosidase A (human) inhibition, pH 4.5; activity change, negative = inhibition, % at 105 µM; 230,000 tested, under 10 active; AID 1467; P06280; purified enzyme, 4-MU-alpha-Gal fluorescence, pH 4.5; inconclusive = small, poorly fitted or top-dose-only inhibition, or a rising curve; inactive = flat fitted curve, though single readings scatter; no compound was filed as active;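 also: 0% = full activity with enzyme and -100% = basal without enzyme; dose as in the result columns while the protocol names 77 µM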
Rango dissoc inh: inhibition of RanGTP-driven Rango-importin beta dissociation; AID 540253; Potency, µM (doses to about 46.1 µM), without a hit: top-dose activity change, negative = inhibition; Biochemical FRET Rango-importin beta, RanGTP-induced dissociation; 340,000 compounds, 0.071% hits; active means falling FRET ratio curve, often poorly fitted, with flat reads before Ran was added; inconclusive means other falling curves, or compound fluorescence or quenching; inactive means flat or rising ratio curve;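 also: potency is read from the fitted curve at half-maximal effect; % of control where 0% means no effect; nearly all actives have a fitted effect of over 45% in size; -100% = wells without RanGTP and RCC1; the record marks most hits as doubtful in a second field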
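Recombinant Rango FRET biosensor (EYFP–snurportin 1 IBB–cerulean CFP10) at 0.1 uM premixed with 0.25 uM importin beta in PBS, 1 mM DTT, 0.02% Tween-20, 0.1% BSA. Compound added 5 min; RanGTP-RCC1 (0.6 uM Ran, 2 mM GTP, 0.2 uM RCC1) then triggers release, read at 45 min.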
* hit, by the source's call; ? = inconclusive; · = not tested or not shown; [ ] = remark or other dose. Not all compounds are listed, so the mix of outcomes need not match the whole.

Structure,Rango-impB inh,miR-21 FLuc,GLA inh pH 4.5,Rango dissoc inh
Cc1ccc(CNC(=S)Nc2ccc(C)c([N+](=O)[O-])c2)cc1,3.2%,-13%,-1,-27%
CC(OC(=O)c1ccc2ncsc2c1)C(=O)NC1CCCCC1C (stereo unspecified),-2.2%,·,·,0%
COc1cc2ccccc2cc1C(=O)OCC(=O)N1CCOCC1,1.6%,-12%,16,4%
Cc1cccc(N2C(=O)C(O)=C(C(=O)c3cccs3)C2c2ccccc2)n1 (stereo unspecified),-2.3%,2%,-7,-4%
CCc1nnc(NC(=O)C2CC(=O)N(C3CCCC3)C2)s1 (stereo unspecified),-0.4%,0%,·,6%
CC(C)CCNC(=O)c1cc(-c2ccco2)nc2ccccc12,-0.7%,8%,14,-16%
CC1(C)Cc2c(sc3nc(SCC(=O)NCc4ccco4)n(-c4ccccc4)c(=O)c23)CS1,2.2%,3%,1,10%
CC(C)(C)C1CCC(C(=O)NNC(=O)c2ccncc2)CC1 (stereo unspecified),-2.1%,·,·,-12%
O=C(Nc1ccc(OC(F)F)c(Cl)c1)c1cccc(OC(F)F)c1,3.1%,14%,-14,9%
O=C1C=C(c2ccc(-c3ccccc3)c(F)c2)C[C@@H](c2ccc(F)cc2)C1,-3.2%,·,·,3%
COc1ccc(C)cc1-n1c(=O)c2ccccc2c2ccccc2c1=O,?,0%,-3,-11%
Cc1cccc(C)c1NC(=O)c1sccc1SCC#N,2.6%,-7%,-8,-12%
CC(C(=O)NC1=NCCS1)(C(F)(F)F)C(F)(F)F,1.3%,-4%,-8,-11%
Cc1ncc(CO)c(/C=N/Nc2cccc(Cl)n2)c1O,?,1%,·,?
COc1ccccc1CNS(=O)(=O)c1cc(C)ccc1OC,-1.4%,-1%,-1,12%

Following part.
Structure,Rango-impB inh,miR-21 FLuc,GLA inh pH 4.5,Rango dissoc inh
Cc1c(C(=O)Nc2ccccn2)oc2ccccc12,2.8%,-27%,2,0%
CC(=O)c1cccc(NC(=O)N2CCC(c3nnc(SCC(N)=O)n3C)CC2)c1,1.2%,-1%,2,9%
N#Cc1nc(-c2ccccc2)oc1N1CCCCC1,-0.7%,-21%,4,1%
CC(C)NC(=O)COC(=O)c1ccc(Cl)c(S(=O)(=O)N2CCCC2)c1,4.1%,-2%,10,-3%
CCOc1cc(/C=N\NC(=O)OC)ccc1OC(=O)c1ccco1,1.7%,6%,6,?
CN(CC(=O)NC1CCCCCC1)S(=O)(=O)c1cnc[nH]1,-3.1%,-1%,2[21.1 µM],6%
CCOc1ccccc1N=CC1=C(O)CC(c2ccccc2)CC1=O (stereo unspecified),?,0%,24,?
Cc1ccc(C(=O)N/N=C\c2ccc(-c3ccc(Cl)c(Cl)c3)o2)cn1,6.8%,-2%,-1,-13%
COc1ccccc1C(=O)Nc1ccccc1N1CCN(S(C)(=O)=O)CC1,4.8%,8%,-3,20%
COc1ccc2cc(C)c3nnc(SCC(=O)Nc4nc(-c5ccccc5)cs4)n3c2c1,-0.5%,-2%,-2,0%
CC1=CCC(C(=O)O)(C(=O)N/N=C/c2cccs2)C(c2ccc(F)cc2)C1 (stereo unspecified),4.5%,-5%,2,2%
O=C1N(Cc2cccnc2)C[C@@H]2C[C@@H](c3ccc(C(F)(F)F)cc3)N3CCC[C@@]123,-2.6%,-1%,3,10%
Cc1c(Br)ccc(NC(=O)COc2ccccc2C(N)=O)c1C,0.0%,-20%,1,-1%
CN(C(=O)CN1C(=O)S/C(=C\c2ccc(Cl)cc2)C1=O)C1CCS(=O)(=O)C1 (stereo unspecified),5.0%,4%,·,4%
O=C1OC(c2ccc(F)cc2)=N/C1=C\C=C/c1ccccc1,-1.1%,-3%,·,-1%

In a second layout: entries from further up.
> Cc1ccc(C(=O)N/N=C\c2ccc(-c3ccc(Cl)c(Cl)c3)o2)cn1
  Rango-impB inh: 6.8% | miR-21 FLuc: -2% | GLA inh pH 4.5: -1 | Rango dissoc inh: -13%
> COc1ccccc1C(=O)Nc1ccccc1N1CCN(S(C)(=O)=O)CC1
  Rango-impB inh: 4.8% | miR-21 FLuc: 8% | GLA inh pH 4.5: -3 | Rango dissoc inh: 20%
> COc1ccc2cc(C)c3nnc(SCC(=O)Nc4nc(-c5ccccc5)cs4)n3c2c1
  Rango-impB inh: -0.5% | miR-21 FLuc: -2% | GLA inh pH 4.5: -2 | Rango dissoc inh: 0%

(more compounds)
Structure,Rango-impB inh,miR-21 FLuc,GLA inh pH 4.5,Rango dissoc inh
COCCN1CCn2c(nc3cc(NC(=O)Cn4nc(C)c5ccccc5c4=O)ccc32)C1,9.3%,-1%,4,-19%
CC[C@@]1(C(=O)OC)N[C@H](CN(C)C(=O)Nc2ccc(F)cc2)[C@@H]2C(=O)N(Cc3ccccc3)C(=O)[C@@H]21,-0.3%,·,·,-5%
CCCCn1c(=O)[nH]c(=O)c2c1nc(COc1ccc(C#N)cc1)n2CCC,-1.5%,-6%,-19,-7%
N=C1C(c2nc3ccccc3c(=O)[nH]2)=C(O)CN1CCO,-4.0%,-6%,-4,-14%
O=S(=O)(Nn1c(O)c(C=C2N=c3ccccc3=N2)sc1=S)c1ccccc1,-0.3%,-7%,-9,-7%
CC(C)C(C(=O)NCc1ccco1)N(CC1CCCO1)C(=O)CNS(=O)(=O)c1ccc(F)cc1 (stereo unspecified),2.4%,0%,·,8%
CC1(C)CC(=O)c2sc(NC(=O)CN3CCCCC3)nc2C1,5.8%,0%,3,7%
CC(C)(Oc1ccc(Cl)cc1)C(=O)NC1CCCCC1,5.2%,·,·,-7%
O=C(/C=C/c1ccc(OC2CSC2)cc1)c1ccc(Cl)cc1,-1.2%,-1%,-3,-11%
COc1ccc(OC)c(C(c2nnnn2Cc2ccco2)N2CCN(C)CC2)c1 (stereo unspecified),-0.8%,-1%,-4,32%
Cc1nc(SCc2ccccc2)c([N+](=O)[O-])[nH]1,3.6%,-26%,-5,3%
CCC(c1nnnn1C(C)(C)C)N1CCN(c2cc(Cl)ccc2C)CC1 (stereo unspecified),-5.1%,-5%,-13,-20%
CC(=O)c1ccccc1NC(=O)CSc1nnc(Cc2csc(C)n2)o1,3.3%,·,·,3%
O=C(NCc1cccs1)C1CCC(CNS(=O)(=O)c2ccc(Br)s2)CC1 (stereo unspecified),5.7%,3%,2,2%
O=[N+]([O-])c1ccc(C2Oc3ccccc3C3CC(c4ccccc4)=NN32)s1 (stereo unspecified),·,6%,-6,·

Reprinted at random: 2 records from the list.
Structure,Rango-impB inh,miR-21 FLuc,GLA inh pH 4.5,Rango dissoc inh
N=C1C(c2nc3ccccc3c(=O)[nH]2)=C(O)CN1CCO,-4.0%,-6%,-4,-14%
CC(C)C(C(=O)NCc1ccco1)N(CC1CCCO1)C(=O)CNS(=O)(=O)c1ccc(F)cc1 (stereo unspecified),2.4%,0%,·,8%

Later entries.
Values run as follows: Rango-impB inh | miR-21 FLuc | GLA inh pH 4.5 | Rango dissoc inh
Cc1ccc(S(=O)(=O)N/N=C\c2cc([N+](=O)[O-])ccc2Cl)cc1
→ -1.6% | 7% | -6 | 2%
Cc1nc(NC(=S)NC(=O)c2cncc(Br)c2)ccc1Br
→ -0.7% | -5% | -3 | 2%
Cn1c(-c2ccccc2Br)n[nH]c1=S
→ -2.3% | · | · | 11%
CC(C)CNc1nc(N)c([N+](=O)[O-])c(N2CCCCCC2)n1
→ 9.5% | 15% | · | -3%
O=C(Cn1nc(CNc2ccc(Cl)cc2)[n+]2c1CCCCC2)c1ccccc1
→ 0.3% | 19% | 5 | -18%
COC(=O)c1ccc(NC(=O)CN2C(=O)NC3(CCC(C)CC3)C2=O)cc1 (stereo unspecified)
→ -1.7% | · | · | 9%
O=C(NCc1ccccc1)N1CCN(c2ccccc2F)CC1
→ 1.5% | -6% | 5 | -4%
N#CCN1C(=S)N=C(Nc2cccc(Cl)c2)C12CCCCC2
→ 1.0% | -3% | 7 | 0%
COc1ccc(-c2cc(C(=O)N3CCCCCC3)c3ccccc3n2)cc1
→ -2.8% | · | · | -2%
COc1cc(NC(=O)COC(=O)Cc2ccsc2)cc(OC)c1
→ -0.1% | · | · | -6%
Cn1ccnc1SCC(=O)Nc1ccc2c(c1)OC(F)(F)O2
→ · | -33% | 3 | ·
CCN(CCNC(=O)C1CCN(S(=O)(=O)c2cccc3cccnc23)CC1)c1ccccc1
→ 0.6% | -1% | 2 | 5%
COC(=O)c1cccc2c1-c1ccccc1/C2=N/O
→ -5.7% | 22% | -6 | -20%
O=C(c1ccc(F)cc1)C1CCN(Cc2ccccc2)CC1
→ 2.4% | · | · | -3%
CCC1C(=O)NCCN1C(=O)c1ccc(OC)c(OC2CCN(C(C)=O)CC2)c1 (stereo unspecified)
→ -0.5% | 0% | · | 12%
Cc1ccc(C(=O)Nc2cccc(NC(=O)c3ccc(C)c([N+](=O)[O-])c3)n2)cc1[N+](=O)[O-]
→ 1.0% | -9% | · | -7%
NC(=O)c1ccc(NC(=O)COC(=O)c2c[nH]c3ccccc23)cc1
→ -2.9% | · | · | -15%
COC1CCN(C(=O)C2CCC(=O)N(C3CCCCCC3)C2)CC1 (stereo unspecified)
→ -1.2% | -45% | · | -7%
CCC1C(C#N)=C(SC)NC2=C1C(=O)CC(C)(C)C2 (stereo unspecified)
→ -1.6% | -2% | 6 | -18%
O=C(CN1C(=O)C2C3CC(C(Br)C3Br)C2C1=O)N1CCOCC1 (stereo unspecified)
→ -3.2% | -2% | -4 | 5%
CC1CCCCN1CCn1c(=S)[nH]c2ncccc2c1=O (stereo unspecified)
→ -1.1% | -7% | 0 | -22%
COc1ccccc1CNS(=O)(=O)c1ccc(N2CCCC2)cc1Br
→ 1.2% | · | · | -2%
COc1ccccc1/C=C/C=N/n1c(-c2ccccc2)n[nH]c1=S
→ 4.0% | 0% | -1 | 8%
COc1ccc(N2C3=[N+](CCCC3)CC2(C)O)cc1 (stereo unspecified)
→ 0.4% | -2% | -2 | -5%
CCn1c(SCC(=O)N2CCCCC2)nnc1-c1ccc(S(=O)(=O)N2CCN(C)CC2)cc1
→ 0.8% | -19% | -4 | -10%
Cc1ccc(-c2c(C#N)c(N)n(-c3ccccc3)c(=O)c2C#N)cc1
→ -0.1% | -4% | -7 | 12%
CC1=NN(c2ccccc2)C(=O)/C1=C\C=C\c1ccccc1
→ -1.7% | 1% | -1 | 14%
CCOc1ccc(OCc2ccc(C(=O)NN)o2)cc1
→ -3.4% | -43% | 3 | 1%
O=C(c1cccc(S(=O)(=O)N2CCCCC2)c1)N1CCOCC1
→ -0.9% | -3% | 2 | 2%
Cc1nnc(SCc2ccccc2)[nH]c1=O
→ 4.7% | -6% | 8 | -6%

The list goes on.
Values run as follows: Rango-impB inh | miR-21 FLuc | GLA inh pH 4.5 | Rango dissoc inh
COC(=O)C1=C(N)Oc2cc(C)n(Cc3cccnc3)c(=O)c2C1c1cccc(OC)c1OC (stereo unspecified)
→ -0.5% | -4% | -5 | 13%
O=C(O)C1=C[C@@H](c2ccc(F)cc2)C[C@@H](OCCCCO)O1
→ 0.1% | 1% | 4 | 1%
CC(C)c1ccc(N(C(=O)CNC(=O)c2ccco2)C(C(=O)NC2CCCC2)c2cccnc2)cc1 (stereo unspecified)
→ 2.8% | -7% | · | -25%
CCOC(=O)C1Cn2c(nc3c(c2=O)C2(CCCC2)Cc2ccccc2-3)S1 (stereo unspecified)
→ ? | 0% | -4 | 31%
CCCCn1nnnc1NCc1ccc(C)cc1
→ -1.7% | -7% | · | -5%
